# YB-1 expr inh – YB-1 expression inhibition | U2OS, qRT-PCR YB-1 vs CDIP delta delta Cp, 16 h; hits give high values; zero = DMSO, each unit about twofold | delta delta Cp (YB-1 minus CDIP) (concentration not given with the values) | 0.37% of 30,000 active;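 active = delta delta Cp rounded down to an integer at or above 3, about 3 SD of DMSO wells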;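 also: higher means less YB-1 transcript or more CDIP transcript relative to DMSO; stock transfer was 100 nL into about 100 µL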
# * = called active by the depositor. The list is partial; count on the stated rates, not on these rows.
SMILES,YB-1 expr inh
C[C@H](CO)N1C[C@H](C)[C@H](CN(C)C(=O)NC2CCCC2)Oc2ncc(-c3ccccc3)cc2C1=O,-0.23
COc1ccccc1S(=O)(=O)N(C)C[C@H]1OCc2cnnn2CCCC(=O)N([C@H](C)CO)C[C@H]1C,-0.047
O=C(N/N=C/c1cccs1)c1ccccc1O,-0.079
C[C@@H]1CN([C@@H](C)CO)C(=O)CCCn2nncc2CO[C@H]1CN(C)Cc1cccc2c1OCCCO2,0.082
C[C@@H]1CN([C@H](C)CO)C(=O)CCCn2cc(nn2)CO[C@@H]1CN(C)C(=O)Nc1ccccc1,-0.044
C[C@H](CO)N1C[C@H](C)[C@H](CN(C)C(=O)Nc2ccccc2C(F)(F)F)OCc2cn(nn2)CCCC1=O,-0.023
Cc1ncc(CO)c(/C=N/NC(=O)c2ccc(C(=O)NO)cc2)c1O,0.18
Cc1ccsc1/C=N/NC(=O)c1ccc(C(=O)NO)cc1,0.13
CN(C)C(=O)[C@@]1(Cc2ccccc2N=[N+]=[N-])N=C(c2ccc(OCCCO)cc2)O[C@H]1c1ccccc1N=[N+]=[N-],-0.27
COC(=O)C(CC#Cc1ccc2c(c1)[C@]1(C(=O)N2)[C@H](C(=O)N2CCc3cc(OC)c(OC)cc3C2)[C@H]2C(=O)O[C@H](c3ccccc3)[C@H](c3ccccc3)N2[C@@H]1c1ccc(O)cc1)C(=O)OC,-0.038
C[C@H]1CN([C@@H](C)CO)C(=O)CCCn2nncc2CO[C@H]1CN(C)C(=O)CCCN(C)C,-0.099
COc1ccc(OC(=O)N(C)C[C@H]2OCc3cn(nn3)CCCC(=O)N([C@@H](C)CO)C[C@@H]2C)cc1,0.2
[N-]=[N+]=NCc1ccccc1C[C@@]1(C(=O)NCc2ccccc2)N=C(c2ccc(OCCCO)cc2)O[C@@H]1c1ccccc1,0.81
C[C@@H]1CN([C@@H](C)CO)C(=O)CCCn2nncc2CO[C@H]1CN(C)Cc1cccnc1,-0.22
COc1ccc(C(=O)Nc2ccc(CN3C(=O)[C@]4(O[C@H](CC(=O)N5Cc6ccccc6C[C@H]5CO)[C@@H]([Si](C)(C)c5ccc(OC)cc5)[C@@H]4C)c4ccccc43)cc2)cc1,0.42
C[C@@H]1CN([C@H](C)CO)C(=O)CCCn2nncc2CO[C@H]1CN(C)CC1CC1,0.32
C[C@H](CO)N1C[C@H](C)[C@@H](CN(C)Cc2ccc(-c3ccccc3)cc2)OCc2cn(nn2)CCCC1=O,-0.041
COc1cc2c(cc1OC)CN(C(=O)[C@H]1[C@@H]3C(=O)O[C@@H](c4ccccc4)[C@@H](c4ccccc4)N3[C@@H](c3ccc(O)cc3)[C@]13C(=O)Nc1ccccc13)CC2,-0.12
CC(C)=CCC[C@H](C)C/C=N/NC(=O)c1ccc(C(=O)NO)cc1,0.27
Cc1noc(C)c1S(=O)(=O)N(C)C[C@@H]1OCc2cn(nn2)CCCC(=O)N([C@@H](C)CO)C[C@@H]1C,-0.41
COc1ccc(OC(=O)N(C)C[C@@H]2OCc3cn(nn3)CCCC(=O)N([C@@H](C)CO)C[C@H]2C)cc1,0.015
O=C(NO)c1cccc(C(=O)N/N=C/c2cc(Br)cs2)c1,-0.061
COc1cc(Br)cc(/C=N/NC(=O)CCCCCC(=O)O)c1O,-0.45
COCCCNC(=O)[C@]1(Cc2ccccc2N=[N+]=[N-])N=C(c2ccc(OCCCO)cc2)O[C@@H]1c1ccccc1,-0.12
C=CC1c2cc(O)c(OC)cc2CCN1Cc1cccc(OC(F)(F)F)c1 (stereo not given),-0.14
# Continuation:
SMILES,YB-1 expr inh
O=C(N/N=C/c1cc2ccccc2n1S(=O)(=O)c1ccccc1)c1ccccc1O,-0.016
CC1=C(C/C=N/NC(=O)CCCCC(=O)NO)C(C)(C)CCC1,-0.26
C[C@H]1CN([C@@H](C)CO)C(=O)CCCn2cc(nn2)CO[C@@H]1CN(C)Cc1ccc(O)cc1,-0.31
C[C@@H]1CN([C@H](C)CO)C(=O)CCCn2nncc2CO[C@@H]1CN(C)C(=O)CCCN(C)C,0.34
COC(=O)[C@]1(CCS(=O)(=O)c2ccccc2)N=C(c2ccc(OCCCO)cc2)O[C@@H]1c1ccccc1N=[N+]=[N-],-0.81
C[C@@H]1CN([C@@H](C)CO)C(=O)CCCn2cc(nn2)CO[C@@H]1CN(C)Cc1cccc2c1OCCCO2,-0.036
Cc1ccccc1S(=O)(=O)N(C)C[C@@H]1OCc2cnnn2CCCC(=O)N([C@@H](C)CO)C[C@@H]1C,-0.25
C=CCN1C(=O)[C@@]2(O[C@@H](CCn3cc(CCO)nn3)[C@H]([Si](C)(C)c3ccc(OC)cc3)[C@H]2C)c2cc(N3CCC3=O)ccc21,0.06
C[C@@H]1CN([C@@H](C)CO)C(=O)CCCn2nncc2CO[C@H]1CN(C)S(=O)(=O)c1ccccc1,0.4
C[C@H](CO)N1C[C@H](C)[C@H](CN(C)Cc2cccc(C(F)(F)F)c2)Oc2ncc(-c3cccc(C(F)(F)F)c3)cc2C1=O,0.61
C[C@H]1CN([C@@H](C)CO)C(=O)CCCn2cc(nn2)CO[C@@H]1CN(C)Cc1ccccc1,0.089
O=C1O[C@H](c2ccccc2)[C@H](c2ccccc2)N2[C@H]1[C@@H](C(=O)O)[C@]1(C(=O)Nc3ccccc31)[C@H]2c1ccc(OCCO)cc1,0.17
O=C(O)CCCCCC(=O)N/N=C/C1CCCCC1,-0.25
O=C(NO)c1ccc(C(=O)N/N=C/c2cc(F)ccc2O)cc1,-0.0059
C=CCNC(=O)[C@@H]1[C@H]2C(=O)O[C@H](c3ccccc3)[C@H](c3ccccc3)N2[C@H](c2ccc(O)cc2)[C@@]12C(=O)Nc1ccc(C#CC3=CCCCC3)cc12,0.21
COC(=O)[C@]1(Cc2ccccc2)N=C(c2ccc(OCCCO)cc2)O[C@@H]1c1ccccc1CN=[N+]=[N-],0.18
O=C(NO)c1cccc(C(=O)N/N=C/c2cc(Br)cc(Br)c2O)c1,-0.83
CC(C)(C)OC(=O)NC1(/C=N/NC(=O)CCCCCCC(=O)Nc2ccccc2O)CCCC1,-0.41
O=C(N/N=C/c1cc(Br)c(O)c(Br)c1)c1ccccc1O,0.11
C[C@H]1CN([C@@H](C)CO)C(=O)CCCn2nncc2CO[C@H]1CN(C)S(=O)(=O)c1ccccc1C#N,-0.11
C[C@@H]1CN([C@@H](C)CO)C(=O)CCCn2cc(nn2)CO[C@H]1CN(C)C(=O)Nc1ccc(C(C)(C)C)cc1,-0.099
CC(C)(C)OC(=O)CC[C@@]12N=C(c3ccc(OCCCO)cc3)O[C@@H]1c1ccccc1CN(CCS(=O)(=O)c1ccccc1)C2=O,0.041
C[C@H](CO)N1C[C@H](C)[C@H](CN(C)C(=O)NC2CCCC2)OCc2cnnn2CCCC1=O,-0.62
C[C@@H]1CN([C@H](C)CO)C(=O)CCCn2nncc2CO[C@H]1CN(C)C(=O)c1ccncc1,0.18
C[C@@H]1CN([C@H](C)CO)C(=O)CCCn2nncc2CO[C@H]1CN(C)Cc1ccc2c(c1)OCO2,-0.03
# Other results follow.
SMILES,YB-1 expr inh
O=C(NO)c1cccc(C(=O)N/N=C/c2ccc(O)c(O)c2O)c1,-0.043
C[C@@H]1CN([C@H](C)CO)C(=O)CCCn2nncc2CO[C@@H]1CN(C)C(=O)Nc1ccnc(N2CCOCC2)c1,0.029
C[C@@H]1CN([C@H](C)CO)C(=O)CCCn2cc(nn2)CO[C@H]1CN(C)C(=O)Cc1ccccc1,-0.088
C[C@@H]1CN([C@H](C)CO)C(=O)CCCn2cc(nn2)CO[C@@H]1CN(C)S(=O)(=O)c1ccccc1,0.039
C[C@H](CO)N1C[C@H](C)[C@H](CN(C)C(=O)Nc2ccc(C(F)(F)F)cc2)OCc2cnnn2CCCC1=O,0.04
COc1cc(/C=N/NC(=O)CCCCCCC(=O)Nc2ccccc2O)c([N+](=O)[O-])cc1OC,-0.16
O=[N+]([O-])c1ccccc1S(=O)(=O)N1CCN(Cc2ccc(OCCO)cc2)CC1,-0.075
COc1cc(/C=N/NC(=O)c2ccc(C(=O)NO)cc2)c(Br)cc1O,0.39
C[C@@H]1CN([C@H](C)CO)C(=O)CCCn2cc(nn2)CO[C@@H]1CN(C)S(=O)(=O)c1ccc(Oc2ccccc2)nc1,-0.0076
N#Cc1ccc(/C=N/NC(=O)CCCCCC(=O)O)cc1,-0.25
C[C@H]1CN([C@@H](C)CO)C(=O)CCCn2cc(nn2)CO[C@H]1CN(C)Cc1ccc2c(c1)OCO2,-0.031
O=C(CCCCCCC(=O)Nc1ccccc1O)N/N=C/c1ccc(Br)cc1,-0.29
C=CCOC(=O)C1=C[C@@H](c2ccc3c(c2)OCO3)C[C@@H](OCc2ccc(CO)cc2)O1,-0.25
C[C@H](CO)N1C[C@H](C)[C@H](CN(C)S(=O)(=O)c2cccs2)Oc2ncc(C#CCN(C)C)cc2C1=O,0.3
O=C(O)CCCCCCC(=O)N/N=C/c1ccccn1,0.15
C[C@H]1CN([C@@H](C)CO)C(=O)CCCn2nncc2CO[C@@H]1CN(C)C(=O)Nc1ccc2c(c1)OCO2,-0.36
O=C1O[C@@H](c2ccccc2)[C@@H](c2ccccc2)N2[C@@H](c3ccc(O)cc3)[C@]3(C(=O)Nc4ccccc43)[C@@H](C(=O)N3CCCCCCC3)[C@H]12,-0.37
O=C(O)CCCCCC(=O)NN=C1CCCC1,0.093
C[C@@H]1CN([C@H](C)CO)C(=O)CCCn2cc(nn2)CO[C@H]1CN(C)C(=O)Nc1ccc(C(F)(F)F)cc1,0.37
Cc1ccc(CN(C)C[C@H]2OCc3cn(nn3)CCCC(=O)N([C@@H](C)CO)C[C@@H]2C)cc1,0.23
C[C@H](CO)N1C[C@H](C)[C@H](CN(C)C(=O)NC2CCCC2)Oc2ncc(-c3ccc(F)cc3)cc2C1=O,-0.13
O=C(NO)c1cccc(C(=O)N/N=C/c2nccs2)c1,0.24
O=C(N/N=C/c1ccc(Br)s1)c1ccccn1,-0.17
CCCCCCC/C=N/NC(=O)CCCCC(=O)NO,0.21
C[C@@H]1CN([C@@H](C)CO)C(=O)CCCn2nncc2CO[C@H]1CN(C)S(C)(=O)=O,-0.12
# (list continues)
SMILES,YB-1 expr inh
CC(C)=CCC[C@@H](C)C/C=N/NC(=O)CCCCCC(=O)O,-0.51
C[C@@H]1CN([C@@H](C)CO)C(=O)CCCn2nncc2CO[C@@H]1CN(C)C(=O)Nc1ccc(C(C)(C)C)cc1,-0.05
C[C@@H]1CN([C@@H](C)CO)C(=O)CCCn2cc(nn2)CO[C@@H]1CN(C)S(=O)(=O)c1ccc(C#N)cc1,0.013
C[C@H](CO)N1C[C@H](C)[C@H](CN(C)C(=O)NC2CCCCC2)OCc2cn(nn2)CCCC1=O,0.28
COc1ccc([Si](C)(C)[C@@H]2[C@@H](CCO)O[C@]3(C(=O)N(Cc4ccc(NC(C)=O)cc4)c4ccccc43)[C@H]2C)cc1,-0.12
COc1ccc([C@H]2C=C(C(=O)N3CCN(Cc4ccc5c(c4)OCO5)CC3)O[C@@H](OCc3ccc(CO)cc3)C2)cc1,-0.06
COc1ccc(/C=N\NC(=O)c2ccccc2O)c(O)c1,0.074
C=CCNC(=O)[C@@H]1[C@H]2C(=O)O[C@H](c3ccccc3)[C@H](c3ccccc3)N2[C@H](c2ccc(OCCO)cc2)[C@@]12C(=O)Nc1ccccc12,-0.016
C[C@@H]1CN([C@@H](C)CO)C(=O)CCCn2cc(nn2)CO[C@H]1CN(C)C,-0.26
COc1cccc(S(=O)(=O)N(C)C[C@@H]2OCc3cnnn3CCCC(=O)N([C@H](C)CO)C[C@@H]2C)c1,-0.19
C[C@H](CO)N1C[C@H](C)[C@H](CN(C)C(=O)Cc2ccccc2)OCc2cn(nn2)CCCC1=O,-0.27
Cc1ccc(S(=O)(=O)N(C)C[C@@H]2OCc3cnnn3CCCC(=O)N([C@H](C)CO)C[C@H]2C)cc1,0.047
C[C@H](CO)N1C[C@H](C)[C@H](CN(C)CC2CCCCC2)OCc2cnnn2CCCC1=O,0.11
CC(C)(C)OC(=O)CC[C@]12N=C(c3ccc(OCCCO)cc3)O[C@H]1c1ccccc1CN(C(=O)c1ccccc1)C2=O,-0.27
Cc1cccc(S(=O)(=O)N(C)C[C@H]2OCc3cn(nn3)CCCC(=O)N([C@@H](C)CO)C[C@@H]2C)c1,0.034
COc1ccccc1CN(C)C[C@@H]1OCc2cnnn2CCCC(=O)N([C@@H](C)CO)C[C@@H]1C,0.078

# 2 of the compounds above, bar-delimited.
canonical_smiles | YB-1 expr inh
Cc1cccc(S(=O)(=O)N(C)C[C@H]2OCc3cn(nn3)CCCC(=O)N([C@@H](C)CO)C[C@@H]2C)c1 | 0.034
C[C@H](CO)N1C[C@H](C)[C@H](CN(C)C(=O)NC2CCCCC2)OCc2cn(nn2)CCCC1=O | 0.28

# In the list so far, 14 have a halogen:
SMILES,YB-1 expr inh
C[C@H](CO)N1C[C@H](C)[C@H](CN(C)C(=O)Nc2ccccc2C(F)(F)F)OCc2cn(nn2)CCCC1=O,-0.023
O=C(NO)c1cccc(C(=O)N/N=C/c2cc(Br)cs2)c1,-0.061
COc1cc(Br)cc(/C=N/NC(=O)CCCCCC(=O)O)c1O,-0.45
C=CC1c2cc(O)c(OC)cc2CCN1Cc1cccc(OC(F)(F)F)c1 (stereo not given),-0.14
C[C@H](CO)N1C[C@H](C)[C@H](CN(C)Cc2cccc(C(F)(F)F)c2)Oc2ncc(-c3cccc(C(F)(F)F)c3)cc2C1=O,0.61
O=C(NO)c1ccc(C(=O)N/N=C/c2cc(F)ccc2O)cc1,-0.0059
O=C(NO)c1cccc(C(=O)N/N=C/c2cc(Br)cc(Br)c2O)c1,-0.83
O=C(N/N=C/c1cc(Br)c(O)c(Br)c1)c1ccccc1O,0.11
C[C@H](CO)N1C[C@H](C)[C@H](CN(C)C(=O)Nc2ccc(C(F)(F)F)cc2)OCc2cnnn2CCCC1=O,0.04
COc1cc(/C=N/NC(=O)c2ccc(C(=O)NO)cc2)c(Br)cc1O,0.39
O=C(CCCCCCC(=O)Nc1ccccc1O)N/N=C/c1ccc(Br)cc1,-0.29
C[C@@H]1CN([C@H](C)CO)C(=O)CCCn2cc(nn2)CO[C@H]1CN(C)C(=O)Nc1ccc(C(F)(F)F)cc1,0.37
C[C@H](CO)N1C[C@H](C)[C@H](CN(C)C(=O)NC2CCCC2)Oc2ncc(-c3ccc(F)cc3)cc2C1=O,-0.13
O=C(N/N=C/c1ccc(Br)s1)c1ccccn1,-0.17
